Bioassay records (PubChem BioAssay)
Mtb hypoxia rep – inhibitors of hypoxia-regulated fluorescent reporter in Mycobacterium tuberculosis; AID 1159583; M. tuberculosis hypoxia-regulated fluorescent reporter, fluorescence; fluorescence inhibition, % (test concentration not listed); 0.1% of 300,000 active;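 active means 35 to 45% if threefold the growth effect, above 45% if 1.5-fold the growth effect; inactive means the rest, general growth blockers included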;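 further: wells of about 50 µL received 100 nL stock; 0% = vehicle wells and 100% = reference inhibitor wells; whole bacteria with a GFP reporter of the hypoxia response; strong numbers were not always called active; many hits fall short of the cut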
Sa RN4220 lethal – S. aureus RN4220 growth inhibition | AID 1259311 | inhibition, % (test concentration not listed) | OD600, 16 h | 0.33% of 330,000 active;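 active means z-score of -3 or lower and OD600 up to 0.18 on both plates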;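 further: plate controls were untreated cells for no effect and reference antibiotic for full effect; stock transfer was 100 nL into about 80 µL; one replicate is shown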
ugtP null kill – kills S. aureus RN4220 lacking UgtP; AID 1259309; growth inhibition, % (no concentration beside the values); S. aureus RN4220 ugtP deletion, OD600 growth, 16 h; some inactives read as strong as hits; 0.54% of 330,000 active;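 active means z-score under -3 and OD600 up to 0.15 on both plates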;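 further: plate controls were untreated wells for no effect and antibiotic for full effect; wells of about 80 µL received 100 nL stock; the first replicate is given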
BJeLR lethal – kills HRASV12-expressing BJeLR cells; 0.17% of 300,000 active; BJeLR (HRASV12) viability, CellTiter-Glo ATP luminescence, 48 h; reference of the scale not given here; inhibition, % (no concentration beside the values);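 active means replicate mean above 50%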;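 further: 50 nL library stock added to about 25 µL; numbers are from one replicate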
Bead autofluor – compound fluorescence in toxin protease inhibitor counterscreen. compound autofluorescence counterscreen, microsphere flow cytometry; stronger effect = higher value. fluorescence intensity (test concentration not listed). 3.1% of 360,000 active;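 active means at least 3 SD above the mean of all compounds, about 16000 in these data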;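 further: 100 nL of 1 mM stock went into each well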
PrP UTR inh – suppresses PrP 5' UTR mRNA reporter expression; cell-based PrP 5' UTR mRNA reporter, plate reader; inhibition, % (concentration not given with the values); 0.35% of 340,000 active; AID 488862;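 active means every replicate at 50% or more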;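 further: 0 = median of the neutral control wells; tested in H4 reporter cells; numbers are from one replicate; inactives centre near -14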
Mtb hypoxia rep growth – second read-out of Mtb hypoxia rep, no call of its own (marks repeat the call); growth inhibition, %; measured here: M. tuberculosis growth (absorbance);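 0% = vehicle and 100% = reference antibiotic; read after six days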
Active calls of the source: *; . = not tested or not shown; & = joins results of further samples.

1	CCCc1nnc2n1N=C(c1ccc(OC)c(OC)c1)CS2
2	CSC(=NS(=O)(=O)c1ccccc1)c1ccccc1
3	COc1ccc2[nH]c(=O)c(CN(Cc3cccnc3)C(=S)NCC3CCCO3)cc2c1 (stereo not drawn)
4	COc1cc(OC)cc(OCC(O)Cn2cnc(-c3ccccc3)c2)c1 (stereo not drawn)
5	C/C(=N\NC(=O)c1ccoc1C)c1cccnc1
6	C(=NOCCc1ccccc1)c1cccnc1
7	Cc1ccc(S(=O)(=O)NC(C(=O)N2CCOCCOCCOCCOCC2)c2ccccc2)cc1 (stereo not drawn)
8	COC(=O)Cc1c(O)ccn(Cc2ccccc2OC)c1=O

compound no.,1,2,3,4,5,6,7,8
PrP UTR inh,2,.,-10,1,-25,-46,-22,-6
Bead autofluor,9350,.,4926,8322,8354,2789,2366,4157
Mtb hypoxia rep growth,-2,-8,7,6,.,-4,15,.
BJeLR lethal,-3,.,-4,15,-3,.,4,-2
ugtP null kill,3,0,-3,5,.,10,3,2
Sa RN4220 lethal,2.9,2.2,-1.5,5.1,.,7.7,5.3,2.8
Mtb hypoxia rep,-5,1,-2,6,.,-1,7,.

9	O=C(Nn1c(-c2ccc(Br)cc2)nc2ccccc2c1=O)c1cccnc1
10	Cc1ccc(CNC(=O)/C=C/c2ccc(S(=O)(=O)NCc3ccco3)cc2)cc1
11	COc1cc(NC(=O)c2cc([N+](=O)[O-])ccc2N2CCOCC2)ccc1NC(=O)c1ccco1
12	Cn1c(=O)c2cc(S(=O)(=O)NCCC(=O)N3CC=C(c4ccccc4)CC3)ccc2n(C)c1=O
13	CCN(CC)Cc1oc(CO)cc(=O)c1O
14	COc1ccc2[nH]cc(CCNC(=O)Cc3ccc(Br)cc3)c2c1
15	O=C(Cc1ccccc1)OC(COCc1ccccc1)CN1CCOCC1 (stereo not drawn)
16	Cn1cc(C(=O)OCC(=O)Nc2ccccc2)c2ccccc21

compound no.,9,10,11,12,13,14,15,16
PrP UTR inh,-10,-40,-21,-18,-12,-16,-13,-21
Bead autofluor,4536,7962,6257,8952,4544,4249,3960,3922
Mtb hypoxia rep growth,0,7,14,4,1,1,.,1
BJeLR lethal,6,3,-2,.,-1,0,-8,.
ugtP null kill,6,-5,-2,8,4,9,8,-2
Sa RN4220 lethal,6.9,-2.1,0.6,3.0,5.1,1.7,-3.3,2.0
Mtb hypoxia rep,5,9,4,4,11,17,.,5

17	Nc1nc2ccccc2n1CCOc1ccc(Cl)cc1
18	CC1=C(C(=O)OC(C)C)C(c2ccco2)NC(=O)N1 (stereo not drawn)
19	O=C1CCc2cc(S(=O)(=O)NCCC(=O)NC3CCN(Cc4ccccc4)CC3)ccc2N1
20	CCCCCn1c(N2CCN(Cc3ccccc3)CC2)nc2c1c(=O)[nH]c(=O)n2C
21	Clc1ccc(CN2C3=NCCN3c3ccccc32)cc1Cl
22	O=C(c1cccs1)N1CCC(c2nc3ccccc3s2)CC1
23	CCn1c(=O)cc(SCC(=O)NCC2CCCO2)c2ccccc21 (stereo not drawn)
24	Clc1cccc(CNCCNCc2cccc(Cl)c2)c1

compound no.,17,18,19,20,21,22,23,24
PrP UTR inh,-27,-16,-17,-13,-15,-16,-43,-21
Bead autofluor,.,3350,11203,8482,23094*,10028,9711,4298
Mtb hypoxia rep growth,6,4,3,6,13,9,3,3
BJeLR lethal,0,6,.,-17,-2,-5,2,1
ugtP null kill,1,-1,4,8,-16,3,6,-8
Sa RN4220 lethal,0.3,4.9,-0.6,2.9,-3.1,3.9,3.3,-2.5
Mtb hypoxia rep,11,5,5,-13,8,7,5,14

25	COc1ccc(C(CC(=O)NCCN2CCOCC2)NS(=O)(=O)c2ccc(C)cc2)cc1 (stereo not drawn)
26	Cc1ccc(C(C)C)c(OCC(=O)NS(=O)(=O)c2ccc(Cl)cc2)c1
27	Cc1[nH]c2ccccc2c1C(=O)CSc1cccc[n+]1[O-]
28	CCOC(=O)c1nnn(-c2nonc2-n2cccc2)c1CN1CCCCC1
29	CC1(C)CC(=O)C(=CN2CCN(C(=O)c3ccco3)CC2)C(=O)C1
30	O=C(O)CCC(=O)N1CCOc2ccc(Cl)cc21
31	COc1ccc(-c2coc3c(CN4CCOCC4)c(O)ccc3c2=O)cc1
32	Cc1cc(C)n(CC(O)CN2C(=O)NC(C)(C)C2=O)n1 (stereo not drawn)

compound no.,25,26,27,28,29,30,31,32
PrP UTR inh,-20,-7,3,-9,-19,-9,-5,-14
Bead autofluor,8404,6232,3836,2294,11197,2969,5727,3685
Mtb hypoxia rep growth,-16,10,4,.,4,-12,2,9
BJeLR lethal,3,0,-13,-6,-5,10,11,3
ugtP null kill,2,-4,6,11,1,-3,2,4
Sa RN4220 lethal,1.4,18,5.9,15,2.4,-9.8,0.6,3.7
Mtb hypoxia rep,-1,14,20,.,-3,24,-2,18

33	Cc1cc(C)c2[nH]c(C(=O)Nc3ccc(F)cc3Br)cc2c1
34	Cc1ccc(NC(=O)c2cc(-c3ccc(C)o3)nc3ccccc23)nc1
35	CC(CNC(=O)CCc1ccccc1)NC(=O)CCc1ccccc1 (stereo not drawn)
36	O=C(CCCc1nc(-c2ccccc2)no1)NCc1cccnc1
37	O=[N+]([O-])c1ccc(NNC(=S)Nc2ccccc2)cc1
38	Cc1cc(Cl)cc(C)c1OCC(=O)O
39	O=C(O)CCc1ccc(-c2ccc(Cl)cc2)n1CCC(=O)O
40	COc1c2ccoc2c(OCC(O)C(C)(C)OC)c2oc(=O)ccc12 (stereo not drawn)

compound no.,33,34,35,36,37,38,39,40
PrP UTR inh,-18,-10,.,-5,-64,-10,-25,.
Bead autofluor,3227,9036,6170,24495*,3942,2507,10629,.
Mtb hypoxia rep growth,-1,5,0,-5,4,.,1,5
BJeLR lethal,6,-7,-1,2,6,-1,6,.
ugtP null kill,6,-5,11,-3,25,5,1,-3
Sa RN4220 lethal,-1.0,2.5,1.2,1.7,4.5,5.5,4.1,2.9
Mtb hypoxia rep,12,-5,2,0,19,.,-1,6

Shown as tab-separated lines: entries from further up
entry	molecule	PrP UTR inh	Bead autofluor	Mtb hypoxia rep growth	BJeLR lethal	ugtP null kill	Sa RN4220 lethal	Mtb hypoxia rep
26	Cc1ccc(C(C)C)c(OCC(=O)NS(=O)(=O)c2ccc(Cl)cc2)c1	-7	6232	10	0	-4	18	14
27	Cc1[nH]c2ccccc2c1C(=O)CSc1cccc[n+]1[O-]	3	3836	4	-13	6	5.9	20
28	CCOC(=O)c1nnn(-c2nonc2-n2cccc2)c1CN1CCCCC1	-9	2294	.	-6	11	15	.
29	CC1(C)CC(=O)C(=CN2CCN(C(=O)c3ccco3)CC2)C(=O)C1	-19	11197	4	-5	1	2.4	-3
30	O=C(O)CCC(=O)N1CCOc2ccc(Cl)cc21	-9	2969	-12	10	-3	-9.8	24
31	COc1ccc(-c2coc3c(CN4CCOCC4)c(O)ccc3c2=O)cc1	-5	5727	2	11	2	0.6	-2
32	Cc1cc(C)n(CC(O)CN2C(=O)NC(C)(C)C2=O)n1 (stereo not drawn)	-14	3685	9	3	4	3.7	18
33	Cc1cc(C)c2[nH]c(C(=O)Nc3ccc(F)cc3Br)cc2c1	-18	3227	-1	6	6	-1.0	12
34	Cc1ccc(NC(=O)c2cc(-c3ccc(C)o3)nc3ccccc23)nc1	-10	9036	5	-7	-5	2.5	-5
35	CC(CNC(=O)CCc1ccccc1)NC(=O)CCc1ccccc1 (stereo not drawn)	.	6170	0	-1	11	1.2	2
36	O=C(CCCc1nc(-c2ccccc2)no1)NCc1cccnc1	-5	24495*	-5	2	-3	1.7	0
37	O=[N+]([O-])c1ccc(NNC(=S)Nc2ccccc2)cc1	-64	3942	4	6	25	4.5	19
38	Cc1cc(Cl)cc(C)c1OCC(=O)O	-10	2507	.	-1	5	5.5	.
39	O=C(O)CCc1ccc(-c2ccc(Cl)cc2)n1CCC(=O)O	-25	10629	1	6	1	4.1	-1
40	COc1c2ccoc2c(OCC(O)C(C)(C)OC)c2oc(=O)ccc12 (stereo not drawn)	.	.	5	.	-3	2.9	6

Next part
41	CCN(CC)S(=O)(=O)c1ccc(OC)c(NC(=O)c2cccc(C)c2[N+](=O)[O-])c1
42	COc1ccc(C2=Nn3c(nnc3-c3ccccc3OC)SC2)cc1OC1CCOC1 (stereo not drawn)
43	N#CC1(c2ccccc2)CCN(C2CC(=O)N(c3cccc(F)c3)C2=O)CC1 (stereo not drawn)
44	COc1cccc(NC(=O)COC(=O)CC2CC3CCC2C3)c1 (stereo not drawn)
45	O=C(COC(=O)c1cnccn1)Nc1ccc2c(c1)OCO2
46	CCOC(=O)C1C2COc3ccc(Cl)cc3C2N2C(=O)CNC(=O)[C@@]12C (stereo partly drawn)
47	CCCc1nnc(NC(=O)C(=O)NCCN(CC)CC)s1
48	O=C(Nc1cccnc1)C1CCCN1S(=O)(=O)c1ccc(Cl)c(Cl)c1 (stereo not drawn)

compound no.,41,42,43,44,45,46,47,48
PrP UTR inh,-10,81*,-24,-21,-11,.,-14,-67
Bead autofluor,3374,3659,3632,4696,2392,.,4600,11173
Mtb hypoxia rep growth,5,17,2,-2,1,10&10,6,-5
BJeLR lethal,-4,.,-8,.,0,.,0,-3
ugtP null kill,24,-17,12,5,0,-2&2,1,3
Sa RN4220 lethal,14,-0.5,4.6,2.6,-10,2.6&6.9,2.6,8.0
Mtb hypoxia rep,5,4,0,6,5,20&12,-1,0

49	COc1cc(Cn2c(-c3ccc(O)c(OC)c3)nc3ccccc32)ccc1O
50	CCOC(=O)COc1c(C=NO)cc(Cl)cc1OC
51	CCCN1C(=O)c2ccc(C(=O)Nc3ccccc3C(=O)O)cc2C1=O
52	COc1ccc(C)cc1N(CC(=O)Nc1ccc(S(=O)(=O)N2CCCC2)cc1)S(C)(=O)=O
53	Cc1cc(C(=O)NN=Cc2cccc(Cl)c2Cl)no1
54	CCc1nnc(NC(=O)CSc2ncc(-c3ccccc3)[nH]2)s1
55	CN1CCN(c2ccccc2NC(=O)c2cc3ccccc3o2)CC1
56	CCOC(=O)c1cc(CC)sc1N=CC1=C(O)CCCC1=O

compound no.,49,50,51,52,53,54,55,56
PrP UTR inh,-18,.,-2,7,.,-24,-14,.
Bead autofluor,3630,.,3759,4011,.,11076,21317*,.
Mtb hypoxia rep growth,15,-5,-5,1,19,9,2,12
BJeLR lethal,11,.,-7,3,.,-2,0,.
ugtP null kill,15,2,16,5,15,0,11,18
Sa RN4220 lethal,5.2,2.7,8.9,2.5,6.0,5.8,4.1,9.6
Mtb hypoxia rep,8,0,2,5,22,3,8,17

57	Cc1ccc(C(=O)NCCCNC(=O)COc2ccc(Cl)cc2)cn1
58	CC1CCCCC1NC(=O)c1c(O)nc2ccccn2c1=O (stereo not drawn)
59	O=c1cnn(Cc2ccc(Cl)c(Cl)c2)c2ccccc12
60	COc1ccc2nc(SCC(=O)Nc3cc(OC)c(OC)cc3C(=O)O)c(C)cc2c1

compound no.,57,58,59,60
PrP UTR inh,-17,-33,-23,-13
Bead autofluor,3778,6256,3818,3270
Mtb hypoxia rep growth,-2,-2,-1,17
BJeLR lethal,-2,3,2,3
ugtP null kill,-3,-3,1,9
Sa RN4220 lethal,2.6,0.8,1.0,22
Mtb hypoxia rep,11,9,-6,18

Values by screen from the entries so far:
Entries 10 to 21 in Sa RN4220 lethal, in turn: -2.1, 0.6, 3.0, 5.1, 1.7, -3.3, 2.0, 0.3, 4.9, -0.6, 2.9, -3.1
Entries 10 to 21 in Mtb hypoxia rep growth, in turn: 7, 14, 4, 1, 1, ., 1, 6, 4, 3, 6, 13
